Compound activity as filed in PubChem.
rRNA inh HTS = reduced GFP signal of wild-type E. coli, primary screen, bacterial rRNA inhibitor project, GFP/RFP fluorescence, OD600, single point; E. coli WT GFP vs humanized-ribosome RFP mutants, 24 h; hits give low values; DMSO median 0, no signal -100; GFP signal change (wild-type ribosome), % (test concentration not listed); 350,000 tested, 1.6% active;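 active = significant combined selectivity score with lowered wild-type GFP, culture density cut under 30%, mutant RFP and density less affected; inactive = any of these conditions unmet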; also: one replicate is shown; some compounds called inactive have numbers as strong as hits
rRNA inh HTS OD600 = also measured in rRNA inh HTS; calls as there; OD600 change, %; measured here: OD600 growth;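 optical density of the mix in the first replicate; 0 = DMSO median and -100 = no signal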
rRNA inh HTS RFP = second read-out of rRNA inh HTS, no call of its own (marks repeat the call); RFP signal change, %; measured here: RFP humanized mutant strains;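 first replicate; 0 = DMSO median and -100 = no signal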
* = called active by the depositor. Some of the compounds tested; the hit share may differ from the screen's.

SMILES	rRNA inh HTS	rRNA inh HTS OD600	rRNA inh HTS RFP
C[C@@H]1CCCCO[C@H](CN(C)C(=O)Nc2ccc(F)cc2)[C@@H](C)CN([C@@H](C)CO)C(=O)c2cc(NS(=O)(=O)c3ccc(Cl)cc3)ccc2O1	6	5	-1.2
CCCC#Cc1cnc2c(c1)C(=O)N([C@@H](C)CO)C[C@@H](C)[C@H](CN(C)C(=O)C1CC1)O2	-2	9	2.1
C[C@H](CO)N1C[C@H](C)[C@@H](CN(C)Cc2ccc(C(F)(F)F)cc2)Oc2c(NS(=O)(=O)c3cccs3)cccc2C1=O	-2	4	-0.6
C[C@@H]1CN([C@H](C)CO)C(=O)c2cc(C#CCN(C)C)cnc2O[C@H]1CN(C)C(=O)c1ccc(F)cc1	5	10	-1.4
Fc1cccc(Cc2c(-c3ccc(Cl)cc3)nc3c(Cl)cc(C(F)(F)F)cn23)c1	7	22	-1.9
O=C(C[C@@H]1CC[C@@H](NC(=O)Cc2ccccn2)[C@H](CO)O1)NCCc1ccccc1	-1	6	-3.8
CCCNC(=O)N[C@@H]1CC[C@H](CCn2cc(C3CCCC3)nn2)O[C@@H]1CO	0	-8	-0.8
O=C(NC(Cc1nn[nH]n1)C(=O)OCc1ccccc1)OCc1ccccc1 (stereo unspecified)	-5	-6	2.4
CO[C@@H]1CN(C)C(=O)c2ccc(NC(=O)c3nc4ccccc4s3)cc2OC[C@@H](C)N(Cc2ccccc2)C[C@H]1C	-3	-1	4.8
C[C@H]1CN([C@@H](C)CO)C(=O)c2cc(NC(=O)CCCCCC(=O)Nc3ccccc3N)ccc2O[C@@H]1CN(C)C(=O)Nc1cccc2ccccc12	7	8	3.1
CCNC(=O)C1(C)CCN(C(=O)c2cccc3ccccc23)C1 (stereo unspecified)	0	1	-2.9
COCC(=O)N(C)C[C@@H]1Oc2cc(-c3cncnc3)ccc2S(=O)(=O)N([C@@H](C)CO)C[C@H]1C	0	6	-2.5
CC=Cc1ccc2n(c1=O)C[C@@H]1[C@@H](CO)[C@H](C(=O)NCC)N(CCC(F)(F)F)[C@H]21 (mixture of isomers)	-1	1	-1.1
CCCNC(=O)N1[C@H](CO)[C@H](c2ccc(C#Cc3cccc(F)c3)cc2)[C@@H]1C#N	-5	-3	-3.9
COCC(=O)Nc1ccc2c(c1)C(=O)N(C)C[C@@H](OC)[C@@H](C)CN(C(=O)c1ccccc1)[C@H](C)CO2	0	-1	-0.7
Cn1nc(C(C)(C)C)cc1C(=O)N1CCCC(c2cc(C(=O)NCc3ccccc3)no2)C1 (stereo unspecified)	4	-30	0.8
CN1CCC(N2CCN(C3CN(Cc4ccc(F)cc4)S(=O)(=O)C3)CC2)CC1 (stereo unspecified)	1	11	7.5
O=C(N[C@H]1CC[C@@H](CCn2cc(-c3cccnc3)nn2)O[C@@H]1CO)c1ccccc1F	2	5	-1.6
CC1(C(=O)NCc2ccc(C(F)(F)F)cc2)CCN1Cc1cc2ccccc2o1 (stereo unspecified)	-6	-13	-0.7
CCS(=O)(=O)Nc1ccc2c(c1)C(=O)N(C)C[C@@H](OC)[C@@H](C)CN(CC1CCCCC1)[C@H](C)CO2	0	3	-1.0

Six entries picked at random from the list so far:
SMILES	rRNA inh HTS	rRNA inh HTS OD600	rRNA inh HTS RFP
COCC(=O)Nc1ccc2c(c1)C(=O)N(C)C[C@@H](OC)[C@@H](C)CN(C(=O)c1ccccc1)[C@H](C)CO2	0	-1	-0.7
O=C(N[C@H]1CC[C@@H](CCn2cc(-c3cccnc3)nn2)O[C@@H]1CO)c1ccccc1F	2	5	-1.6
CCCNC(=O)N1[C@H](CO)[C@H](c2ccc(C#Cc3cccc(F)c3)cc2)[C@@H]1C#N	-5	-3	-3.9
CN1CCC(N2CCN(C3CN(Cc4ccc(F)cc4)S(=O)(=O)C3)CC2)CC1 (stereo unspecified)	1	11	7.5
CCNC(=O)C1(C)CCN(C(=O)c2cccc3ccccc23)C1 (stereo unspecified)	0	1	-2.9
CC1(C(=O)NCc2ccc(C(F)(F)F)cc2)CCN1Cc1cc2ccccc2o1 (stereo unspecified)	-6	-13	-0.7

(continued)
SMILES	rRNA inh HTS	rRNA inh HTS OD600	rRNA inh HTS RFP
Cc1cccc(C)c1-n1nnnc1C(c1ccnc2ccccc12)N(CCC#N)Cc1ccccc1 (stereo unspecified)	3	4	2.4
COc1ccc(NC(=O)N(C)C[C@H]2Oc3ccc(NS(=O)(=O)c4cccs4)cc3C(=O)N([C@@H](C)CO)C[C@H]2C)cc1	-3	6	0.9
C[C@H](CO)N1C[C@H](C)[C@H](CN(C)Cc2ccc(-c3ccccc3)cc2)Oc2ccc(NC(=O)C3CC3)cc2CC1=O	-4	-25	8.4
Cc1ccc(S(=O)(=O)Nc2ccc3c(c2)C(=O)N([C@@H](C)CO)C[C@@H](C)[C@@H](CN(C)S(=O)(=O)c2ccccc2)OCCCC[C@@H](C)O3)cc1	-2	-3	-1.6
COc1ccccc1CNC(=O)C[C@@H]1CC[C@@H]2[C@H](COC[C@@H](O)CN2Cc2cccc(-c3ccncc3)c2)O1	-8	-26	-2.6
O=C(NCc1ccccc1)[C@H]1CCCN1C(=O)[C@H]1CCCN1C(=O)c1cccc2ccccc12	-3	-7	0.6
C[C@@H]1CN([C@@H](C)CO)S(=O)(=O)c2ccc(C#CCN(C)C)cc2O[C@@H]1CN(C)C(=O)c1ccccc1F	7	14	0.9
Clc1ccccc1OCCNc1nc(NCC2CC2)nc2ccsc12	-51	-81	-19
C[C@@H]1CN([C@H](C)CO)C(=O)Cc2cc(NC(=O)CCCCCC(=O)Nc3ccccc3N)ccc2O[C@H]1CN(C)CC1CC1	2	1	2.4
C[C@H]1CN([C@@H](C)CO)C(=O)Cc2cc(NC(=O)Nc3ccc(F)cc3)ccc2O[C@@H]1CN(C)C(=O)Nc1ccc2c(c1)OCO2	1	10	1.0
CCCc1nc2ccc(C)cn2c1Cc1ccccc1	9	5	8.6
CC1(C(=O)NS(=O)(=O)c2ccc(Cl)cc2)CCN1C(=O)Cc1cccs1 (stereo unspecified)	5	-6	-1.0
C[C@@H]1CN([C@@H](C)CO)C(=O)Cc2cc(NS(=O)(=O)c3cccs3)ccc2O[C@@H]1CN(C)Cc1ccc(-c2ccccc2)cc1	1	-9	0.6
COC(=O)C1(C(=O)OC)Cc2ccccc2N(S(=O)(=O)c2ccc(C)cc2)C1CC(C)=O (stereo unspecified)	-28	-47	-5.3
COc1cccc(CNC(=O)[C@@H]2[C@@H](CO)[C@@H]3Cn4c(ccc(-c5ccncc5)c4=O)[C@@H]3N2C)c1	2	-1	-1.3
C[C@H](CO)N1C[C@H](C)[C@@H](CN(C)S(=O)(=O)c2ccc(Cl)cc2)OCCCC[C@H](C)Oc2ccc(NC(=O)CCCN(C)C)cc2C1=O	-2	-14	26
C[C@H]1CN([C@@H](C)CO)S(=O)(=O)c2ccc(/C=C/c3ccccc3)cc2O[C@H]1CN(C)C(=O)Nc1cc(F)ccc1F	-1	4	-0.3
C[C@H]1CN([C@@H](C)CO)C(=O)Cc2cc(NS(=O)(=O)c3ccc(Cl)cc3)ccc2O[C@@H]1CN(C)CC1CCCCC1	-4	-36	12
COCC(=O)Nc1ccc2c(c1)OC[C@@H](C)N(CCC(F)(F)F)C[C@H](C)[C@H](OC)CN(C)C2=O	-1	-3	-0.4
COc1ccc(-c2ccc3c(c2)[C@H]2[C@H](CCN2C(=O)c2ccc4c(c2)OCO4)[C@H](CO)N3)cc1	-7	2	-0.1
COCc1cn(CC[C@@H]2CC[C@H](NC(=O)Nc3ccc(OC)cc3)[C@@H](CO)O2)nn1	3	6	-0.5
CCC(=O)N1[C@H](CO)[C@H]2c3ccccc3N(C(=O)c3ccncc3)C[C@H]21	4	13	-2.7
Cc1noc(C)c1S(=O)(=O)Nc1ccc2c(c1)C(=O)N([C@@H](C)CO)C[C@@H](C)[C@H](CN(C)C)OCCCC[C@H](C)O2	1	5	1.2
COc1ccc(CNC(=O)C[C@H]2CC[C@H]3[C@H](COc4ccc(NC(=O)C5CC5)cc4C(=O)N3C)O2)cc1	-2	3	-0.9
Cc1ccccc1-c1ccc2c(c1)O[C@H](CN(C)C(=O)c1ccccn1)[C@@H](C)CN([C@H](C)CO)S2(=O)=O	-4	-8	-3.2
CC=Cc1ccc2n(c1=O)C[C@@H]1[C@@H](CO)[C@H](C(=O)NC3CCC3)N[C@H]21 (mixture of isomers)	3	-1	-3.3
Cc1noc(C)c1NC(=O)Nc1ccc2c(c1)C(=O)N([C@H](C)CO)C[C@H](C)[C@H](CN(C)Cc1ccncc1)OCCCC[C@H](C)O2	-1	5	-0.7
C[C@@H]1CN([C@@H](C)CO)C(=O)Cc2cc(NS(=O)(=O)c3ccc(F)cc3)ccc2O[C@H]1CN(C)Cc1ccccc1	-8	-49	32
O=C(C[C@@H]1CC[C@H](NC(=O)c2ccccn2)[C@@H](CO)O1)NCc1cccc(F)c1	0	1	-2.9
CNC[C@@H]1Oc2ncc(C3=CCCCC3)cc2C(=O)N([C@H](C)CO)C[C@@H]1C	1	-1	2.1
Cc1noc(C)c1NC(=O)NCC[C@H]1CC[C@@H](NC(=O)c2ccccc2)[C@H](CO)O1	0	0	-0.5
O=C(C[C@@H]1C[C@@H]2c3cc(NC(=O)Nc4ccc(C(F)(F)F)cc4)ccc3O[C@@H]2[C@@H](CO)O1)NCCc1ccccc1	-7	-8	-0.2
COc1ccc(S(=O)(=O)Nc2ccc3c(c2)CC(=O)N([C@H](C)CO)C[C@@H](C)[C@H](CN(C)CC2CCCCC2)O3)cc1	8	-24	18
C[C@H]1CN([C@@H](C)CO)S(=O)(=O)c2ccc(C#CCN(C)C)cc2O[C@@H]1CN(C)C	5	4	-2.5
C/C=C/c1ccc([C@H]2[C@@H](CO)N(C(=O)C3CC3)C23CN(S(=O)(=O)CC)C3)cc1	2	3	-1.3
COc1cccc(C#Cc2ccc3c(c2)[C@@H]2[C@@H](CCN2S(=O)(=O)c2ccc(C)cc2)[C@H](CO)N3)c1	-6	1	3.7
CC(C)NC(=O)N(C)C[C@@H]1Oc2ncc(C#Cc3ccncc3)cc2C(=O)N([C@H](C)CO)C[C@@H]1C	9	7	0.6
Cc1noc(C)c1S(=O)(=O)Nc1ccc2c(c1)C(=O)N([C@H](C)CO)C[C@@H](C)[C@@H](CN(C)Cc1ccc(C(F)(F)F)cc1)OCCCC[C@H](C)O2	3	0	2.6
CCCCNc1ccc2c(c1)OC[C@@H](CC(C)C)NS2(=O)=O	-2	-11	-1.5
CNC[C@@H]1Oc2ncc(Br)cc2C(=O)N([C@@H](C)CO)C[C@H]1C	6	3	-1.6
CN1C(=O)c2cc(NC(=O)Nc3ccccc3Cl)ccc2OC[C@H]2O[C@@H](CC(=O)O)CC[C@@H]21	0	3	0.9
COc1cccc(C(=O)Nc2ccc3c(c2)C(=O)N(C)C[C@H](OC)[C@H](C)CN[C@@H](C)CO3)c1	4	7	1.2
O=C(NCc1nnnn1-c1ccc(F)cc1)c1ccc2c(c1)OCO2	11	5	2.9
COc1ccc(NC(=O)N(C)C[C@@H]2Oc3ccc(NC(=O)Nc4ccc5c(c4)OCO5)cc3CC(=O)N([C@@H](C)CO)C[C@@H]2C)cc1	1	0	0.3
Nc1[nH]c(C(=O)c2ccccc2)c(-c2ccccc2C(F)(F)F)c1C(=O)c1cccs1	-8	-1	11
CCc1cnc(N2[C@@H](C#N)[C@H](c3ccc(-c4cccc(F)c4)cc3)[C@@H]2CO)s1	1	-15	-2.0
COC(=O)[C@@]12C[C@@H](CC(=O)NCc3cccc(C(F)(F)F)c3)C(=O)N(Cc3ccccc3)C1=CCC(C)(C)C2	7	10	1.8
C[C@H](CO)N1C[C@H](C)[C@H](CN(C)C(=O)Nc2ccc(C(F)(F)F)cc2)Oc2ccc(NC(=O)CCCCCC(=O)Nc3ccccc3N)cc2CC1=O	1	1	-1.0
CC(C)NC(=O)Nc1ccc2c(c1)C(=O)N([C@H](C)CO)C[C@@H](C)[C@@H](CN(C)Cc1ccc(C(=O)O)cc1)O2	5	7	-2.3
CC=Cc1ccc2n(c1=O)C[C@H]1[C@H](CO)[C@@H](C(=O)NCC3CC3)N(Cc3ccncc3)[C@@H]21 (mixture of isomers)	1	1	-0.3

Sorted by value in rRNA inh HTS RFP (descending): some entries from above.
SMILES	rRNA inh HTS	rRNA inh HTS OD600	rRNA inh HTS RFP
Nc1[nH]c(C(=O)c2ccccc2)c(-c2ccccc2C(F)(F)F)c1C(=O)c1cccs1	-8	-1	11
CC=Cc1ccc2n(c1=O)C[C@H]1[C@H](CO)[C@@H](C(=O)NCC3CC3)N(Cc3ccncc3)[C@@H]21 (mixture of isomers)	1	1	-0.3
CC(C)NC(=O)Nc1ccc2c(c1)C(=O)N([C@H](C)CO)C[C@@H](C)[C@@H](CN(C)Cc1ccc(C(=O)O)cc1)O2	5	7	-2.3

Next records.
SMILES	rRNA inh HTS	rRNA inh HTS OD600	rRNA inh HTS RFP
C[C@@H]1CCCn2cc(nn2)COCCNC1=O	1	6	-3.0
O=C(c1cccnc1)N1C[C@H]2[C@@H](c3ccccc31)[C@H](CO)N2CC1CCCC1	-4	0	2.3
Cc1noc(C)c1NC(=O)Nc1cccc2c1O[C@H](CN(C)S(=O)(=O)c1ccccc1)[C@H](C)CN([C@H](C)CO)C2=O	3	2	-2.9
O=C(C[C@H]1CC[C@@H](NC(=O)Cc2cccnc2)[C@H](CO)O1)Nc1ccccc1	2	4	0.8
C/C=C/c1cnc2c(c1)C(=O)N([C@H](C)CO)C[C@@H](C)[C@H](CN(C)Cc1ccncc1)O2	-4	-3	0.7
CS(=O)(=O)N1[C@H](CO)[C@@H](c2ccccc2-c2ccccc2F)[C@@H]1C#N	-1	11	0.0
